# NOMO-1 viab: STK33 inhibitor candidate reducing NOMO-1 cell viability | NOMO-1 AML viability, CellTiter-Glo luminescence, 72 h | inhibition, % (concentration not given with the values) | AID 2330 | actives 7.5% (n = 37,000);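 active means most replicates above 80%; inconclusive means exactly half above 80%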;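 further: wells of about 30 µL received 25 nL stock; 0% = median of vehicle wells and 100% = reference inhibitor level; the first replicate is given; inactives centre near 10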
# Active calls of the source: *; ? = inconclusive. These rows are one share of the data; count on the stated rates, not on these rows.
smiles	NOMO-1 viab
C[C@@H]1CN([C@H](C)CO)C(=O)Cc2cc(NC(=O)Cn3cnnn3)ccc2O[C@H]1CN(C)Cc1ccc(C(F)(F)F)cc1	-4.0
COc1ccc([N+](=O)[O-])cc1NC(=O)CN(c1ccc(Br)c(C)c1)S(C)(=O)=O	27.3
COc1ccc2c(=O)cc(-c3ccccc3)oc2c1	22.4
COc1ccc(CN(C)C[C@H]2OCCCC[C@@H](C)Oc3ccc(NS(=O)(=O)c4ccc(F)cc4)cc3C(=O)N([C@H](C)CO)C[C@@H]2C)cc1	24.2
CC(C)S(=O)(=O)c1csc(NC(=O)N2CCCCC2)c1Cl	-3.8
COc1ccc(NC(=O)Nc2cccc3c2O[C@H](CN(C)CC2CC2)[C@@H](C)CN([C@@H](C)CO)C3=O)cc1	19.7
COc1ccc(NC(=O)N(C)C[C@@H]2Oc3c(NC(=O)Nc4ccccc4)cccc3C(=O)N([C@@H](C)CO)C[C@@H]2C)cc1	-1.3
C[C@@H]1CN([C@H](C)CO)C(=O)c2cc(NS(=O)(=O)c3ccc(Cl)cc3)ccc2O[C@H]1CN(C)Cc1ccc(Cl)c(Cl)c1	19.4
C[C@H]1CN([C@@H](C)CO)C(=O)c2cccc(NC(=O)c3nc4ccccc4s3)c2O[C@H]1CN(C)C(=O)Nc1ccc(C(F)(F)F)cc1	109.5*
COc1ccc(S(=O)(=O)Nc2ccc3c(c2)CC(=O)N([C@H](C)CO)C[C@@H](C)[C@@H](CN(C)S(=O)(=O)c2ccc(F)cc2)O3)cc1	27.2
C[C@H](CO)N1C[C@H](C)[C@H](CN(C)Cc2ccncc2)Oc2ccc(N(C)C)cc2CC1=O	0.5
C[C@@H]1CN([C@H](C)CO)C(=O)c2cccc(NS(C)(=O)=O)c2O[C@H]1CN(C)C(=O)Nc1ccc(C(F)(F)F)cc1	-7.9
CCc1cc2c(NC(Cc3c[nH]c4ccccc34)C(=O)O)nc(C)nc2s1 (stereo unspecified)	-14.7
Cc1occc1-c1nnc2sc(-c3ccc(-c4ccccc4[N+](=O)[O-])o3)nn12	12.1
C[C@H](CO)N1C[C@H](C)[C@@H](CN(C)S(C)(=O)=O)Oc2c(NC(=O)Nc3ccccc3)cccc2C1=O	-16.7
S=C(NC1CCCCC1)C12CCC3CC(CC(C3)C1)C2	38.0
C[C@H]1CN([C@@H](C)CO)C(=O)c2cc(NC(=O)CCN3CCOCC3)ccc2O[C@H]1CN(C)CC1CC1	-4.2
C=C1CC[C@@H]2[C@](C)(CO[C@@H]3O[C@H](CO)[C@@H](O)[C@H](O)[C@H]3O)CCC[C@@]2(C)[C@@H]1CCC1=CCOC1=O	16.1
Cc1noc(C)c1S(=O)(=O)N(C)C[C@@H]1Oc2ccc(NC(=O)C3CCCCC3)cc2CC(=O)N([C@@H](C)CO)C[C@@H]1C	2.3
Cc1noc(C)c1S(=O)(=O)Nc1cccc2c1O[C@@H](CN(C)C(=O)Nc1ccc(C(F)(F)F)cc1)[C@@H](C)CN([C@H](C)CO)C2=O	38.7
COc1cc2c(cc1NC(=O)CSc1nnc(-c3cnccn3)n1-c1ccccc1)oc1ccccc12	53.1
NCCCCNS(=O)(=O)c1ccc2ccccc2c1	1.0
C[C@@H]1CN([C@@H](C)CO)C(=O)c2cc(NC(=O)Nc3cccc4ccccc34)ccc2O[C@H]1CN(C)Cc1ccc(C(=O)O)cc1	-0.2
O=C(OC1OC(CO)C(O)C(O)C1O)c1c(O)cc(O)cc1/C=C/c1ccccc1 (stereo unspecified)	7.7
COc1ccc(NC(=O)c2ccc3c(=O)n(CCc4ccccc4)c(=S)[nH]c3c2)cc1	-7.7
O=C(CSc1ccccn1)Nc1c(C(=O)c2ccc(F)cc2)oc2ccccc12	11.5
O=C(CCN1C(=O)c2ccccc2C1=O)NC(=S)Nc1ccccc1	3.5
CCCC1CCC(c2ccc(C(N)=O)cc2)CC1 (stereo unspecified)	-10.8
COc1ccc(NC(=O)N(C)C[C@H]2Oc3c(NC(=O)C4CC4)cccc3C(=O)N([C@@H](C)CO)C[C@H]2C)cc1	3.4
C[C@H]1CN([C@@H](C)CO)C(=O)c2cccc(NC(=O)c3ccncc3)c2O[C@H]1CN(C)Cc1ccccc1	-7.7

# Next part:
smiles	NOMO-1 viab
Cc1cc(C)nc(/N=C2\NC(=O)CC(C(=O)O)N2c2ccc(Oc3ccccc3)cc2)n1 (stereo unspecified)	-1.4
COC1=CC(=O)O[C@@H](CCc2ccccc2)[C@H]1O	4.4
COC(=O)c1cccc(NC(=O)COc2ccc(OC)cc2)c1C	15.3
C[C@@H]1CN([C@H](C)CO)C(=O)c2cccc(NC(=O)Nc3ccc4c(c3)OCO4)c2O[C@H]1CN(C)C(=O)Nc1ccccc1	-2.1
CN(C)c1nc(N)nc(CSc2n[nH]c(-c3ccccc3)n2)n1	-0.1
COc1ccc(CN(C)C[C@@H]2Oc3ccc(NS(=O)(=O)c4ccccc4)cc3CC(=O)N([C@H](C)CO)C[C@@H]2C)cc1	5.7
CCOc1ccc2c(c1)sc(=NC(=O)c1ccc(S(=O)(=O)N3CCCCC3C)cc1)n2CC (stereo unspecified)	31.3
COc1ccc(OC)c(N/C=C(\C#N)c2nc(-c3cc4ccccc4oc3=O)cs2)c1	41.2
O=C(CSc1nc2ccccc2c(=O)n1-c1ccc(Br)cc1)Nc1cccc(F)c1	-13.4
C[C@@H]1CN([C@H](C)CO)C(=O)c2cc(NC(=O)Nc3cccc4ccccc34)ccc2O[C@H]1CN(C)S(=O)(=O)c1cccs1	-1.3
C[C@@H]1CN([C@H](C)CO)C(=O)c2cccc(NC(=O)Nc3ccc(F)cc3)c2O[C@@H]1CN(C)S(=O)(=O)c1ccccc1	31.1
COC(=O)CN(c1ccc(Cl)c(C(F)(F)F)c1)S(=O)(=O)c1ccc(C)cc1	21.6
COc1ccc(OC)c(NC(=O)C(C)N(c2ccc(C)c(C)c2)S(C)(=O)=O)c1 (stereo unspecified)	36.2
C[C@H]1CN([C@@H](C)CO)C(=O)c2cccc(NS(=O)(=O)c3ccccc3)c2O[C@H]1CN(C)Cc1ccc2c(c1)OCO2	7.0
O=C(Nc1ccc(S(=O)(=O)Nc2ncccn2)cc1)c1ccc2c(c1)OCCO2	-17.4
COc1ccc(NC(=O)N(C)C[C@@H]2OCCCC[C@@H](C)Oc3ccc(NS(=O)(=O)c4c(C)noc4C)cc3C(=O)N([C@H](C)CO)C[C@@H]2C)cc1	7.6
CN1CCN(CC(=O)Nc2sc3c(c2C#N)CCC(C(C)(C)C)C3)CC1 (stereo unspecified)	114.8*
O=C(O)COc1ccccc1-c1nc(-c2ccccc2)c(-c2ccccc2)[nH]1	-28.6
NC(=O)CSc1nc2c(c(=O)n1CCc1ccccc1)C1(CCCCC1)Cc1ccccc1-2	21.8
CC(C)NC(=O)N(C)C[C@H]1Oc2ccc(NS(=O)(=O)c3ccccc3)cc2CC(=O)N([C@H](C)CO)C[C@H]1C	1.4
Cc1noc(C)c1S(=O)(=O)Nc1cccc2c1O[C@@H](CN(C)C(=O)NC(C)C)[C@@H](C)CN([C@@H](C)CO)C2=O	-0.6
C[C@@H]1CN([C@H](C)CO)C(=O)c2cccc(NC(=O)Nc3ccc4c(c3)OCO4)c2O[C@H]1CN(C)Cc1ccc(C(F)(F)F)cc1	103.7*
C[C@H]1CN([C@@H](C)CO)C(=O)c2cccc(NS(=O)(=O)c3ccc(Cl)cc3)c2O[C@@H]1CN(C)Cc1ccc(C(=O)O)cc1	-22.3
C[C@@H]1CCCCO[C@@H](CN(C)C(=O)CCC(F)(F)F)[C@@H](C)CN([C@H](C)CO)C(=O)c2cc(NC(=O)Cc3ccccc3)ccc2O1	-9.7
C[C@H]1CN([C@@H](C)CO)C(=O)c2cccc(NS(=O)(=O)c3cccs3)c2O[C@H]1CN(C)C	-13.2
CC(C)NC(=O)N(C)C[C@@H]1OCCCC[C@@H](C)Oc2ccc(NC(=O)Cc3ccccc3)cc2C(=O)N([C@H](C)CO)C[C@@H]1C	16.4
C/C=C1\CC(C)(CC)C(C#N)(C#N)C(N)=C1C#N (stereo unspecified)	36.2
Cc1ccc(S(=O)(=O)N(C)C[C@@H]2Oc3c(NC(=O)c4cnccn4)cccc3C(=O)N([C@@H](C)CO)C[C@@H]2C)cc1	6.1
C[C@@H]1CN([C@H](C)CO)C(=O)c2cccc(NC(=O)C3CCOCC3)c2O[C@H]1CN(C)Cc1ccc(C(F)(F)F)cc1	19.6
Cc1cc(C)nc(Nc2ncc(O)n2-c2ccc(Cl)c(Cl)c2)n1	-0.9

# 6 structures from above, ordered by heavy-atom count, ascending.
smiles	NOMO-1 viab
COC(=O)CN(c1ccc(Cl)c(C(F)(F)F)c1)S(=O)(=O)c1ccc(C)cc1	21.6
O=C(O)COc1ccccc1-c1nc(-c2ccccc2)c(-c2ccccc2)[nH]1	-28.6
Cc1cc(C)nc(/N=C2\NC(=O)CC(C(=O)O)N2c2ccc(Oc3ccccc3)cc2)n1 (stereo unspecified)	-1.4
Cc1ccc(S(=O)(=O)N(C)C[C@@H]2Oc3c(NC(=O)c4cnccn4)cccc3C(=O)N([C@@H](C)CO)C[C@@H]2C)cc1	6.1
C[C@H]1CN([C@@H](C)CO)C(=O)c2cccc(NS(=O)(=O)c3ccc(Cl)cc3)c2O[C@@H]1CN(C)Cc1ccc(C(=O)O)cc1	-22.3
COc1ccc(NC(=O)N(C)C[C@@H]2OCCCC[C@@H](C)Oc3ccc(NS(=O)(=O)c4c(C)noc4C)cc3C(=O)N([C@H](C)CO)C[C@@H]2C)cc1	7.6

# Next section:
smiles	NOMO-1 viab
Cc1noc(C)c1NC(=O)Nc1ccc2c(c1)CC(=O)N([C@H](C)CO)C[C@@H](C)[C@@H](CN(C)C(=O)Nc1ccccc1)O2	15.5
C[C@@H]1CN([C@H](C)CO)C(=O)Cc2cc(NS(C)(=O)=O)ccc2O[C@H]1CN(C)S(=O)(=O)c1ccc(Cl)cc1	33.3
C=CC(C)(C)C12CC3C(=O)NC(Cc4cnc[nH]4)C(=O)N3C1Nc1ccccc12 (stereo unspecified)	0.2
C[C@H]1CN([C@@H](C)CO)C(=O)c2cc(NC(=O)Cc3ccccc3)ccc2O[C@H]1CN(C)Cc1ccc(C(F)(F)F)cc1	29.9
COc1ccc(NC(=O)Nc2cccc3c2O[C@H](CN(C)Cc2ccccc2)[C@H](C)CN([C@@H](C)CO)C3=O)cc1	33.2
Cc1cc(Cl)ccc1NC(=O)CN1CCC(C(N)=O)(N2CCCCC2)CC1	-13.9
C[C@@H]1CN([C@@H](C)CO)C(=O)c2cc(NC(=O)Nc3ccc(F)cc3)ccc2O[C@@H]1CN(C)C(=O)NC1CCCCC1	3.7
COc1ccc(NC(=O)Nc2ccc3c(c2)C(=O)N([C@H](C)CO)C[C@@H](C)[C@@H](CN(C)Cc2ccc(C(=O)O)cc2)O3)cc1	0.6
C[C@@H]1CN([C@@H](C)CO)C(=O)c2cc(NC(=O)CCC(F)(F)F)ccc2O[C@H]1CN(C)Cc1ccccc1	8.3
C[C@@H]1CN([C@@H](C)CO)C(=O)Cc2cc(NC(=O)Nc3ccccc3)ccc2O[C@@H]1CN(C)Cc1ccc(Cl)c(Cl)c1	103.0*
COC(=O)c1ccccc1NC(=O)COc1ccc(Br)cc1C(C)(C)C	15.8
CC(C)CC(NC(=O)Nc1cccc2ccccc12)C(=O)O (stereo unspecified)	8.0
C[C@@H]1CCCCO[C@@H](CN(C)Cc2ccc3c(c2)OCO3)[C@@H](C)CN([C@H](C)CO)C(=O)c2cc(NC(=O)Nc3ccc(C(F)(F)F)cc3)ccc2O1	112.9*
C[C@@H]1CN([C@@H](C)CO)C(=O)c2cccc(NC(=O)C3CCCCC3)c2O[C@@H]1CN(C)Cc1ccc(C(F)(F)F)cc1	?
COc1ccc(CN(C)C[C@@H]2OCCCC[C@@H](C)Oc3ccc(NC(=O)Nc4ccc5c(c4)OCO5)cc3C(=O)N([C@H](C)CO)C[C@@H]2C)cc1	25.3
Cc1ccnc(NS(=O)(=O)c2ccc(NS(C)(=O)=O)cc2)n1	1.1
CCCCN1C(=O)/C(=C2\SC(=Nc3ccc(Cl)cc3)N(C)C2=O)c2ccccc21	29.7
CC(C)NC(=O)Nc1ccc2c(c1)CC(=O)N([C@@H](C)CO)C[C@H](C)[C@H](CN(C)Cc1ccc3c(c1)OCO3)O2	11.0
O=C(COc1ccc(CO)cc1Cl)Nc1ccc(F)cc1	-9.6
Cc1noc(C)c1NC(=O)Nc1ccc2c(c1)C(=O)N([C@H](C)CO)C[C@H](C)[C@@H](CN(C)S(=O)(=O)c1cccs1)OCCCC[C@@H](C)O2	10.8
Cc1sc2ncn(CC(=O)Nc3ccc(Oc4ccccc4)cc3)c(=O)c2c1-c1ccccc1	25.3
C[C@H]1CN([C@@H](C)CO)C(=O)c2cc(NC(=O)C3CC3)ccc2O[C@@H]1CN(C)S(=O)(=O)c1ccc(Cl)cc1	-3.8
COC(=O)c1cc(OC)c(OC)cc1NC(=O)CSc1nnc(-c2cccnc2)n1C	10.3
Cc1ccc(S(=O)(=O)N(C)C[C@@H]2Oc3ccc(NC(=O)Nc4ccccc4)cc3CC(=O)N([C@H](C)CO)C[C@H]2C)cc1	9.6
Cc1noc(C)c1NC(=O)Nc1ccc2c(c1)CC(=O)N([C@H](C)CO)C[C@@H](C)[C@H](CN(C)C(=O)NC(C)C)O2	7.8
O=C(CSc1nc2ccccc2c(=O)[nH]1)Nc1cccc(I)c1	5.5
CC(C)NC(=O)N(C)C[C@@H]1Oc2c(NS(C)(=O)=O)cccc2C(=O)N([C@H](C)CO)C[C@H]1C	6.8
Cc1c(NC(=O)COc2ccc(Cl)cc2Cl)cccc1-c1nc2cc(Cl)ccc2o1	-10.2
Cc1nn(CC(N)=S)c(C)c1Br	30.9
CCOc1ccc(Br)cc1CNCc1cccnc1	-16.8
COc1ccc(S(=O)(=O)N(C)C[C@@H]2Oc3ccc(NC(=O)C4CC4)cc3CC(=O)N([C@H](C)CO)C[C@@H]2C)cc1	21.0

# Compound activity: PubChem BioAssay, Broad Institute
